HCMV NEC inh – inhibitors of HCMV UL50-UL53 nuclear egress complex interaction; HTRF UL50-UL53 interaction, normalized percent inhibition; inhibition, % (test concentration not listed); 0.15% of 190,000 active;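 active means both replicates at 50% or more, plus weaker picks with an unusually low signal ratio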;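 further: stock transfer was 100 nL into about 20 µL; 0% = negative control wells and 100% = wells with untagged competitor protein; inactives centre near -12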
Sa growth inh – inhibitors of Staphylococcus aureus growth at 42 °C; S. aureus RN4220 growth, OD600, 20 h; active compounds read low; AID 720641; 0.53% of 170,000 active; relative growth, % (no concentration beside the values);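 active means growth at 42 °C up to 50% and 20 or more points under that at 30 °C, or under 10% at both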;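 further: 300 nL library stock went into each well; scaled to the means of positive and negative controls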
GIV Gai3 FP – inhibitors of GIV GBA-motif binding to rat Galpha-i3; Galpha-i3/FITC-GIV peptide fluorescence polarization, 90 min; active compounds read low; scaled: aluminum fluoride 0%, vehicle 100%; AID 1224905; percent of control (FP), % (no concentration beside the values); 0.42% of 210,000 active;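 active means replicate mean at 85% of control or lower, very high polarization wells dropped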;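 further: wells of about 15 µL received 100 nL stock; the first replicate is given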
Target sequence (P08753 whole entry, looked up): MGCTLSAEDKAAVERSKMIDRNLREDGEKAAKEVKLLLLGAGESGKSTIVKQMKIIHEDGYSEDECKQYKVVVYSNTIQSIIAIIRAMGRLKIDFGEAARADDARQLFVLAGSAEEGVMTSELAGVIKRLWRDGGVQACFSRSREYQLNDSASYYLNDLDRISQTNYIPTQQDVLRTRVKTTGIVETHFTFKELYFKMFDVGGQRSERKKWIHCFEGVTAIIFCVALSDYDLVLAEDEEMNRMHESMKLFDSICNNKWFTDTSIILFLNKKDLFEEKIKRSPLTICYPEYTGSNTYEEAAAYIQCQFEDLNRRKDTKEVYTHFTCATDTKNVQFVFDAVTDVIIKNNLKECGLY
Sa growth inh second temp – further read-out of Sa growth inh, marked with its call; relative growth, %; measured here: growth at 30 °C;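 optical density after 20 h as mean of two plates; 100% = untreated growth and lower means inhibition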
* = called active by the depositor; & = joins results of further samples. Random draw from the library; 0.83% or so of the library scored in one or more.

Screening COCCCn1cnc2scc(-c3ccccc3)c2c1=O returned HCMV NEC inh 7.3 and GIV Gai3 FP 99.8.
For COc1ccccc1/C=C1\CC/C(=C\c2ccccc2OC)C1=O the results were Sa growth inh 120.4, GIV Gai3 FP 112.8 and Sa growth inh second temp 94.1.
For Nc1cc(-c2ccccc2)nn1CCO the results were HCMV NEC inh -8.0, Sa growth inh 69.2 and Sa growth inh second temp 88.2.
`Cc1cc(C)n(-c2ccc(Cl)c(C(=O)NN3C(C)CCCC3C)n2)n1` (stereo unspecified) gave HCMV NEC inh -1.1, Sa growth inh 93.0 and Sa growth inh second temp 91.7.
Cc1nc(-c2cccc(N3CC(C(=O)NCCC4=CCCCC4)CC3=O)c2)no1 (stereo unspecified) was read as HCMV NEC inh -31.4 and GIV Gai3 FP 105.6.
For COCCNC(=O)c1cc(C)nc2c1c(=O)n(C)c(=O)n2C the results were HCMV NEC inh -22.1 and GIV Gai3 FP 101.1.
For CCCN(CCC)C(=O)c1cc2c(=O)[nH]c3ccc(C)cc3c2s1 the results were HCMV NEC inh 2.3, Sa growth inh 95.9, GIV Gai3 FP 101.3 and Sa growth inh second temp 74.4.
For Cc1ccc(-n2c3c(cc(-c4nc(-c5ccc(Cl)cc5)cs4)c2=O)C(=O)CC(C)(C)C3)cc1 the results were HCMV NEC inh -2.6, Sa growth inh 97.1, GIV Gai3 FP 95.7 and Sa growth inh second temp 90.7.
`COc1cccc(N(CCN2C(=O)c3ccccc3C2=O)C(=O)C(C)C)c1` gave HCMV NEC inh -17.8, Sa growth inh 104.0 and Sa growth inh second temp 101.7.
CC(=O)c1cccc(NS(=O)(=O)c2cc(-c3onc(C)c3C)ccc2C)c1 was read as Sa growth inh 125.4, GIV Gai3 FP 101.4 and Sa growth inh second temp 82.7.

Entries shown so far containing a halogen:
`Cc1cc(C)n(-c2ccc(Cl)c(C(=O)NN3C(C)CCCC3C)n2)n1` (stereo unspecified) gave HCMV NEC inh -1.1, Sa growth inh 93.0 and Sa growth inh second temp 91.7.
For Cc1ccc(-n2c3c(cc(-c4nc(-c5ccc(Cl)cc5)cs4)c2=O)C(=O)CC(C)(C)C3)cc1 the results were HCMV NEC inh -2.6, Sa growth inh 97.1, GIV Gai3 FP 95.7 and Sa growth inh second temp 90.7.

Later entries:
Cc1nn(Cc2cccc3ccccc23)c(C)c1NC(=O)C1CC1c1ccccc1 (stereo unspecified) was read as HCMV NEC inh -5.0, Sa growth inh 103.3 and Sa growth inh second temp 92.2.
For COC(=O)c1ccccc1N1C(=O)C=CC1=O the results were HCMV NEC inh -13.9, Sa growth inh 62.1, GIV Gai3 FP 106.3 and Sa growth inh second temp 42.3.
For CCCNC(=O)Nc1ccc(-c2noc(-c3cccc(Cl)c3)n2)cc1 the results were HCMV NEC inh -28.9 and GIV Gai3 FP 101.3.
Screening CCC1(C)Cc2ccccc2-c2nc(NCCO)n(-c3ccccc3)c(=O)c21 (stereo unspecified) returned HCMV NEC inh 0.0, Sa growth inh 105.5, GIV Gai3 FP 102.4 and Sa growth inh second temp 99.9.
`COc1ccc(N2C(=O)CCC(C(=O)O)C2c2ccccc2)cc1` (stereo unspecified) gave HCMV NEC inh -4.2, Sa growth inh 98.0 and Sa growth inh second temp 99.2.
For COc1ccc(C)cc1NC(=O)c1cn(C)c(=O)c2cc(OC)c(OC)cc12 the results were HCMV NEC inh 7.8, Sa growth inh 94.1, GIV Gai3 FP 97.1 and Sa growth inh second temp 87.0.
`Cc1oc(-c2cccc(Cl)c2)nc1Cn1c(SCc2ccc(F)cc2)nc2cccnc21` gave Sa growth inh 103.6, GIV Gai3 FP 104.9 and Sa growth inh second temp 93.5.
Screening COCCOC(=O)C1=C(C)NC2=C(C(=O)CC(c3ccc(OC)cc3)C2)C1c1ccc(Br)cc1 (stereo unspecified) returned HCMV NEC inh 0.2 and GIV Gai3 FP 99.5.
For CNC(=O)C(C)n1sc2ccccc2c1=O (stereo unspecified) the results were Sa growth inh 102.5, GIV Gai3 FP 98.4 and Sa growth inh second temp 92.1.
CC1(C)CC(/C=C/c2ccccn2)=Cc2c1sc(N)c2C#N was read as HCMV NEC inh -30.7, Sa growth inh 101.2 and Sa growth inh second temp 82.7.
`COc1cccc(NC(=S)N(Cc2ccco2)C(C)c2ccco2)c1` (stereo unspecified) gave HCMV NEC inh 8.3, Sa growth inh 95.2, GIV Gai3 FP 105.1 and Sa growth inh second temp 103.7.
COc1ccc(C2Nc3ccccc3C(=O)N2c2ccccc2)cc1CSc1ccccn1 (stereo unspecified) was read as HCMV NEC inh -8.9 and GIV Gai3 FP 102.1.
`CC1=CC(=O)c2ccccc2C1=O` gave HCMV NEC inh -97.6&-5.2&-46.3, Sa growth inh 17.4 and Sa growth inh second temp -0.7.
N#Cc1nccnc1Oc1ccc(Cl)cc1 was read as HCMV NEC inh -86.3, Sa growth inh 91.9, GIV Gai3 FP 102.6 and Sa growth inh second temp 91.0.
Screening COc1ccc(-n2ncc(NC(=O)Nc3ccc4c(c3)OCCCO4)c2C)cc1 returned HCMV NEC inh 8.4, Sa growth inh 116.2, GIV Gai3 FP 102.1 and Sa growth inh second temp 90.4.
Screening C/C=C/c1ccc(OCCCn2c(CN3CCOCC3)nc3ccccc32)c(OC)c1 returned HCMV NEC inh 8.3 and GIV Gai3 FP 105.1.
`COCCNc1c(-c2ccccc2)nc2cc(C)ccn12` gave HCMV NEC inh -38.3, Sa growth inh 94.2, GIV Gai3 FP 101.0 and Sa growth inh second temp 74.0.
For O=C(CC(c1cccs1)N1Cc2ccccc2C1=O)Nc1ccc(F)cc1 (stereo unspecified) the results were Sa growth inh 101.2, GIV Gai3 FP 106.5 and Sa growth inh second temp 99.2.
Screening Cc1ccc(C(=O)N/C(=C\c2ccccc2)C(=O)Nc2c(C)n(C)n(-c3ccccc3)c2=O)cc1 returned HCMV NEC inh 8.3, Sa growth inh 93.8 and Sa growth inh second temp 103.9.
`Cc1ccc(CN(Cc2ccco2)C(=O)c2ccc(OCC(C)C)cc2)cc1` gave HCMV NEC inh 2.1, Sa growth inh 80.7, GIV Gai3 FP 100.2 and Sa growth inh second temp 60.1.
COc1ccc(S(=O)(=O)c2nnn(-c3cc(Cl)c(OC)cc3OC)c2C)cc1 was read as HCMV NEC inh -2.3, Sa growth inh 106.3, GIV Gai3 FP 102.7 and Sa growth inh second temp 82.2.
Screening Cc1ccsc1CN1CCc2nc(N3CCN(c4ccccc4F)CC3)ncc2C1 returned Sa growth inh 94.7, GIV Gai3 FP 103.0 and Sa growth inh second temp 91.4.
`NC(=O)c1cccc(C(N)=O)c1` gave HCMV NEC inh -8.9, Sa growth inh 99.8 and Sa growth inh second temp 89.3.
Cc1nn(-c2ccc(Br)cc2)c2nc(-c3ccncc3)cc(C(F)(F)F)c12 was read as HCMV NEC inh -0.9 and GIV Gai3 FP 104.1.
O=c1c2cc3c(nc2ncn1Cc1cc(=O)n2ccccc2n1)CCCC3 was read as HCMV NEC inh -44.0 and GIV Gai3 FP 122.2.
For COc1ccc(CNC(=O)C(OC(=O)c2ccc(Cl)nc2)c2ccccn2)cc1 (stereo unspecified) the results were HCMV NEC inh 6.4, Sa growth inh 90.0, GIV Gai3 FP 97.6 and Sa growth inh second temp 81.1.
COc1cccc(NC(=O)C2CCN(S(=O)(=O)c3cc(-c4noc(C)n4)ccc3C)CC2)c1 was read as Sa growth inh 107.5, GIV Gai3 FP 100.6 and Sa growth inh second temp 98.4.
`Cn1c(O)c(C=NCCc2c[nH]c3ccccc23)c(=O)[nH]c1=S` gave HCMV NEC inh -2.6, Sa growth inh 112.2, GIV Gai3 FP 102.2 and Sa growth inh second temp 86.7.
`Cc1ccccc1NC(=O)C(=O)NCC(c1ccc2c(c1)OCO2)N1CCN(c2ccccc2)CC1` (stereo unspecified) gave Sa growth inh 91.5, GIV Gai3 FP 91.8 and Sa growth inh second temp 91.8.
For COc1ccccc1CNC(=O)CCC(=O)n1ncc2c(C)cccc21 the results were HCMV NEC inh -29.4 and GIV Gai3 FP 104.0.

Filtered by structure: the entries above with an aryl thioether with sulfur outside any ring
`Cc1oc(-c2cccc(Cl)c2)nc1Cn1c(SCc2ccc(F)cc2)nc2cccnc21` gave Sa growth inh 103.6, GIV Gai3 FP 104.9 and Sa growth inh second temp 93.5.
COc1ccc(C2Nc3ccccc3C(=O)N2c2ccccc2)cc1CSc1ccccn1 (stereo unspecified) was read as HCMV NEC inh -8.9 and GIV Gai3 FP 102.1.

(list continues)
Cn1c(C(N)=O)cc2ccccc21 was read as HCMV NEC inh -3.1, Sa growth inh 93.0, GIV Gai3 FP 108.2 and Sa growth inh second temp 97.8.
For CNC(=O)CN1C(=O)CCCc2ccccc21 the results were HCMV NEC inh -27.8, Sa growth inh 82.3, GIV Gai3 FP 94.6 and Sa growth inh second temp 77.0.
For COc1ccc(OC)c(C2N(Cc3ccccc3C)CCN2Cc2ccccc2F)c1 (stereo unspecified) the results were Sa growth inh 73.8, GIV Gai3 FP 107.0 and Sa growth inh second temp 87.6.
For CCN(CC)CCCNC(=O)c1cc(C)nc2c(C)cc(C)cc12 the results were HCMV NEC inh -45.0 and GIV Gai3 FP 102.0.
Cc1ccc(Cn2nc(C)c(/C=C/C(=O)OCc3nc4c(oc5ccccc54)c(=O)[nH]3)c2Cl)cc1 was read as HCMV NEC inh -35.5, Sa growth inh 93.3 and Sa growth inh second temp 95.1.
Screening CC(=O)N1CCc2c(sc3c2c(=O)n(-c2ccccc2)c(=O)n3CC(=O)Nc2cc(C)[nH]n2)C1 returned HCMV NEC inh -21.7, Sa growth inh 97.4, GIV Gai3 FP 98.6 and Sa growth inh second temp 86.7.
Screening O=C1CN(C(=O)CC2c3ccccc3-c3ccccc32)CC(=O)N1 returned HCMV NEC inh -9.1, Sa growth inh 89.0, GIV Gai3 FP 99.2 and Sa growth inh second temp 84.8.
For O=C(c1ccc(NC2=NC3CS(=O)(=O)CC3S2)cc1)N1CCN(c2ccccc2)CC1 (stereo unspecified) the results were HCMV NEC inh -2.2, Sa growth inh 95.6, GIV Gai3 FP 102.3 and Sa growth inh second temp 93.1.
CC(C)(C)/C=N/NC(=O)C1CC1 was read as HCMV NEC inh -34.5, Sa growth inh 97.0, GIV Gai3 FP 106.8 and Sa growth inh second temp 89.3.
`O=C(c1cc(-c2cccnc2)n[nH]1)N1CCN(CCOc2ccc(Cl)cc2)CC1` gave HCMV NEC inh -3.4 and GIV Gai3 FP 99.0.
For Cc1ccc(CNCc2ccc3c(c2)n(C)c(=O)n3C)cc1 the results were HCMV NEC inh -20.6, Sa growth inh 99.5, GIV Gai3 FP 100.2 and Sa growth inh second temp 89.2.
Screening O=C(Cn1c2ccc(F)cc2c2nc3n(c(=O)c21)CCS3)NC1CCCC1 returned HCMV NEC inh -21.7, Sa growth inh 100.4, GIV Gai3 FP 100.6 and Sa growth inh second temp 94.6.
Screening O=C(NCc1cccc(F)c1)c1ccc2c(c1)sc1nc(-c3ccc(Cl)cc3)cn12 returned HCMV NEC inh -4.6 and GIV Gai3 FP 104.7.
`Cc1ccc(NC(=O)CSc2nccn2Cc2ccco2)cc1Cl` gave Sa growth inh 117.4, GIV Gai3 FP 99.3 and Sa growth inh second temp 78.2.
Cc1cc(C)nc(N(C#N)Cc2ccccc2Cl)n1 was read as HCMV NEC inh 4.0, Sa growth inh 91.5, GIV Gai3 FP 99.3 and Sa growth inh second temp 91.0.
Cc1noc(C)c1C(=O)N(CC(=O)Nc1ccccc1Br)Cc1ccco1 was read as HCMV NEC inh -6.4, Sa growth inh 102.7 and Sa growth inh second temp 98.4.
For Cc1cc(C)nc(SCCc2ccncc2)n1 the results were Sa growth inh 82.7, GIV Gai3 FP 102.3 and Sa growth inh second temp 80.8.
Screening Cc1cc(C)c(CN)c(=O)[nH]1 returned HCMV NEC inh -6.2, Sa growth inh 83.0 and Sa growth inh second temp 94.7.
Screening O=C1C(=O)N(C2CCN(S(=O)(=O)Cc3ccccc3)CC2)CCN1Cc1ccc(F)cc1 returned HCMV NEC inh -7.7 and GIV Gai3 FP 99.7.
`COc1ccccc1C(=O)N/N=C/c1c(O)c(I)cc2oc3c(c12)CCCC3` gave HCMV NEC inh -16.0, Sa growth inh 89.9, GIV Gai3 FP 99.5 and Sa growth inh second temp 80.3.
Screening CC1CCCCC1NC(=O)c1ccc(F)cc1 (stereo unspecified) returned HCMV NEC inh -20.9, Sa growth inh 95.7 and Sa growth inh second temp 88.8.
`CCC(=O)Nc1c(C(=O)N2CCc3ccccc3C2)cnn1-c1ccc(C)c(C)c1` gave HCMV NEC inh -2.5, Sa growth inh 101.7, GIV Gai3 FP 107.2 and Sa growth inh second temp 98.8.
Screening CCn1cc(/C=C2/C(=O)N(c3ccccc3)c3ccccc32)c2ccccc21 returned Sa growth inh 94.7, GIV Gai3 FP 53.0* and Sa growth inh second temp 91.9.
Cc1nc2ccc(Oc3ccc4nc(C)[nH]c4c3)cc2[nH]1 was read as HCMV NEC inh -14.8, Sa growth inh 62.3, GIV Gai3 FP 113.1 and Sa growth inh second temp 72.5.
`N#CC1=C(N)SC(N)=C(C#N)C1c1ccccc1` gave HCMV NEC inh -30.9, Sa growth inh 73.8, GIV Gai3 FP -0.3* and Sa growth inh second temp 66.4.
`O=S(=O)(CCN1CCN(C(c2ccccc2)c2ccccc2)CC1)C(F)(F)F` gave HCMV NEC inh 3.4, Sa growth inh 95.4 and Sa growth inh second temp 93.9.
`CSc1nc(-c2ccccc2F)c(C#N)c(=O)n1C` gave HCMV NEC inh 9.9, Sa growth inh 91.4, GIV Gai3 FP 96.6 and Sa growth inh second temp 106.4.

Compound activity (PubChem)
